# Mtb MbtI inh: inhibitors of Mycobacterium tuberculosis siderophore enzyme MbtI; P9WFX0; inhibition, %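 (about 17 µg/mL by stock and volumes)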; purified MbtI enzyme, fluorescence intensity read-out; hit rate 0.89% among 100,000; AID 493033;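 active = above 50% in both replicates, above 80% if mildly self-fluorescent; inactive = the rest, strongly fluorescent compounds included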;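 note: 0% = mean of negative and 100% = mean of positive controls; one replicate is shown; some compounds called inactive have numbers as strong as hits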
# MenB inh: Mtb MenB enzyme inhibition; P9WNP5; MenB enzyme assay, absorbance read-out; some hits fall short of the stated cut; inhibition, %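 (about 12 µg/mL by stock and volumes)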; hit rate 0.43% among 100,000; AID 540299;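 active = mean of two replicates above 30%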;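 note: 0% = no compound and 100% = wells with inactive enzyme; the first replicate is given; strong numbers were not always called active; inactives centre near -10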
# Target sequence (P9WNP5 whole entry, looked up): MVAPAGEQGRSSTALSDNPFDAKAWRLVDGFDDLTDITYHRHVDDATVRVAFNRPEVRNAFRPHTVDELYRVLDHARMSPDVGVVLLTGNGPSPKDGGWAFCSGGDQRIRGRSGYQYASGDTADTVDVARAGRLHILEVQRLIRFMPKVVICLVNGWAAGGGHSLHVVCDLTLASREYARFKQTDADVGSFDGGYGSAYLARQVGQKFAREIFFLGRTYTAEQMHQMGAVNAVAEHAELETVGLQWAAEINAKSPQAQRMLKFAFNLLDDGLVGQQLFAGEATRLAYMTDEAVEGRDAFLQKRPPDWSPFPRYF
# Polio RdRp inh: poliovirus RNA polymerase inhibition; poliovirus polymerase elongation, fluorescence polarization; active compounds read low; % elongation, % (compound at 16.7 µg/mL); hit rate 0.66% among 150,000; AID 588519; in the data active = % elongation below about 90%; note: some results filed as inactive read as strong as hits
# Target sequence (P03300 1749-2209 limits assumed): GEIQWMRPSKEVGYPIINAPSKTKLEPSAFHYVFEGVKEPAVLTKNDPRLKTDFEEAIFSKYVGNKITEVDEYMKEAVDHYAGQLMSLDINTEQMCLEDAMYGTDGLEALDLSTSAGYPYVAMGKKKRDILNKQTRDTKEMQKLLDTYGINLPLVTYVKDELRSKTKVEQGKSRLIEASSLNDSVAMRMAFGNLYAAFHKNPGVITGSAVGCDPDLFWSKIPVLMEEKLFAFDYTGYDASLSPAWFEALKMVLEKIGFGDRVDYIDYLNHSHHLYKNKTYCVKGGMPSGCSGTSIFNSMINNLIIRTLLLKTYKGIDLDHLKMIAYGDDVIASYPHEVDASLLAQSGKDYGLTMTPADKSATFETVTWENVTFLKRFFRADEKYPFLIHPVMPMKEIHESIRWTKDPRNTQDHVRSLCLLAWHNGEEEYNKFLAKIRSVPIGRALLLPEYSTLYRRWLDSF
# Polio RdRp inh intensity: recorded beside Polio RdRp inh, whose call it bears; % elongation; measured here: total intensity read-out; formula for this scale not given here;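 total fluorescence in place of polarization; lower means less elongation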
# * = called active by the depositor; . = no result given; & = joins results of further samples.
SMILES,Mtb MbtI inh,MenB inh,Polio RdRp inh,Polio RdRp inh intensity
CCN(CC)CC(=O)N1c2ccccc2NC(=O)CC1C (stereo not drawn),-6,-19,103,103
Cc1[nH]c2ccccc2c1C(=O)Cn1nnc(-c2cccc(C(F)(F)F)c2)n1,-6,.,103,103
CCCC1=C(C(=O)OCC)C(c2cc(Br)c(O)c(OC)c2)NC(=O)N1 (stereo not drawn),.,5,108,116
Cc1nc2ccccc2c(=O)n1NC(=O)c1c(O)c2c(n(CC(C)C)c1=O)CCCC2,-75,-18,101,102
Cc1ccccc1-n1c(SCc2cccc(C#N)c2)nnc1-c1cc2occc2n1C,22,-49,101,102
COc1ccc(S(=O)(=O)N2CCc3ccccc32)cc1C(=O)N1CCC(C)CC1,5,-26,96,104
COc1ccnc2cc(Cl)ccc12,-2,-64,102,103
O=C(O)c1ccc(N2CCCC2=O)cc1,-4,.,100,103
NC(=O)Nn1c(CCC(=O)O)ccc1-c1ccc(Cl)cc1,5,-14,102,100
O=S(=O)(c1cccs1)N1CCN(c2ccccc2Cl)CC1,-10,-12,102,102
CCCc1cc(=O)[nH]c(N/N=C/C=C\c2ccccc2)n1,-17,-13,102,102
COc1ccc(N=C2c3ccccc3-c3nc4ccccc4nc32)cc1,.,-13,103,104
CSc1ccccc1NC(=S)Nc1cccnc1,.,-4,115,113
Cc1cc(C)c2nc(/N=C(\N)NC(=O)C(C)(C)C)nc(C)c2c1,9,1,104,104
O=C(c1csc(Nc2ccccc2Cl)n1)N1CCCC1,52,14,100,99
Cc1ccsc1C(=O)OCc1nc2sc3c(c2c(=O)[nH]1)CCCC3,2,-23,104,106
Cc1cc(C)nc(SC2=C(N3CCC(C)CC3)C(=O)N(Cc3ccccc3)C2=O)n1,5,-13,93,109
Cc1ccc2nc(NC(=O)Nc3ccccc3)sc2c1,11,-7,101,100
CC(C)CNCC1COC2(CCCCC2)O1 (stereo not drawn),-3,11,102,100
O=C(N/C(C(=O)N1CCOCC1)=C(\Sc1ccccn1)c1ccccc1)c1ccccc1,.,-8,104,107

# Quoted from the listing.
# Result for Cc1ccsc1C(=O)OCc1nc2sc3c(c2c(=O)[nH]1)CCCC3 in MenB inh: -23
# Result for COc1ccc(S(=O)(=O)N2CCc3ccccc32)cc1C(=O)N1CCC(C)CC1 in Mtb MbtI inh: 5
# Result for COc1ccnc2cc(Cl)ccc12 in Mtb MbtI inh: -2
# Result for COc1ccc(N=C2c3ccccc3-c3nc4ccccc4nc32)cc1 in MenB inh: -13
# Result for Cc1ccccc1-n1c(SCc2cccc(C#N)c2)nnc1-c1cc2occc2n1C in Polio RdRp inh intensity: 102
# Result for O=S(=O)(c1cccs1)N1CCN(c2ccccc2Cl)CC1 in MenB inh: -12

# (continued)
SMILES,Mtb MbtI inh,MenB inh,Polio RdRp inh,Polio RdRp inh intensity
O=C(CCN1N=C(c2ccccc2)CCC1=O)NC1CCCC1,16,-3,102,92
Cc1nnsc1C(=O)NC(=O)Nc1cc(Cl)cc(Cl)c1,-2,-22,111,101
CCOC(=O)CSc1nnc(CNc2ccc(F)cc2)o1,-1,2,100,103
COC(=O)c1cnc(Oc2c(Cl)cc(N)cc2Cl)cc1C(F)(F)F,-15,3,99,107
Cc1c(C)n(Cc2ccc(F)cc2)c2ccc(C(=O)N3CCN(c4ncccn4)CC3)cc12,-15,2,101,101
C=CC(C)n1c(=O)c2c(nc3n2CCN3c2ccc(Cl)cc2)n(C)c1=O (stereo not drawn),7,6,.,.
CC(=O)N(C)c1ccccc1C(=O)O,-16,-19,100,101
CC(C)(C)OC(=O)N1CCN(S(=O)(=O)c2ccc(N3C(=O)CC4(CCCC4)C3=O)c(Cl)c2)CC1,0,-12,105,100
O=C(CN(CC1CCCO1)S(=O)(=O)c1ccc(S(=O)(=O)N2CCOCC2)cc1)Nc1ccccc1 (stereo not drawn),-10,-30,102,99
CC1(C)CC(NC(=O)NC(=O)c2c(F)cccc2F)CC(C)(C)N1,.,-29,98,90
Cc1nc2ccc(S(=O)(=O)NC(C(=O)N3CCn4c3nc3ccccc34)C(C)C)cc2s1 (stereo not drawn),11,-5,101,106
Cc1[nH]n2c(=O)c3c(nc2c1-c1ccccc1)CCC3,.,-25,106,95
Cc1cc(C)c2c3c(oc2n1)C(=O)N(c1cccc(C(F)(F)F)c1)CC(=O)N3,0,1,100,97
CCCCCCCCCCCCCCCCCCOC[C@H](COP(=O)([O-])OCC[N+](C)(C)C)OC(C)=O,-18,-4,101&100,103&103
COc1ccc(S(=O)(=O)Nc2ccc(S(=O)(=O)N3CCCC3)cc2)cc1Cl,-3,0,99,100
O=C(NCC(=O)N1CCN(S(=O)(=O)c2ccc3c(c2)OCCCO3)CC1)c1ccccc1,-4,-2,105,106
CC1C2CC(C(S(=O)(=O)N3CCOCC3)C2=O)C1(C)C (stereo not drawn),.,-4,104,104
O=C(CSc1ncnc2ccccc12)NCCC1=CCCCC1,-2,-41,103,93
COc1ccc(N=Cc2ccccc2Br)cn1,-159,.,78,129
CCOC(=O)Cn1c2c(sc1=O)C(c1ccc(Cl)cc1)C1C3CCC(C3)C1S2 (stereo not drawn),-2,-4,102,102

# Profiles, looked up by structure. Order of screens: Mtb MbtI inh	MenB inh	Polio RdRp inh	Polio RdRp inh intensity
# Results for CCCCCCCCCCCCCCCCCCOC[C@H](COP(=O)([O-])OCC[N+](C)(C)C)OC(C)=O = -18	-4	101&100	103&103
# Results for CCOC(=O)Cn1c2c(sc1=O)C(c1ccc(Cl)cc1)C1C3CCC(C3)C1S2 (stereo not drawn) = -2	-4	102	102

# Following part.
SMILES,Mtb MbtI inh,MenB inh,Polio RdRp inh,Polio RdRp inh intensity
CC1(C)C2CCC1(C)C(OCC[N+]1(C)CCOCC1)C2 (stereo not drawn),-1,9,100,102
C=CCNC(=O)c1ccc2nc(-c3ccco3)c(-c3ccco3)nc2c1,52,-38,93,91
COC(=O)C1=C(C)N(Cc2ccccc2)C(=O)NC1c1ccccc1F (stereo not drawn),4,-16,103,107
CCC12CN3CC(CC)(CN(C1)C3c1ccc(C(C)C)cc1)C2=O (stereo not drawn),16,5,102,99
N#C/C(=C(\O)c1ccco1)c1nc2ccccc2[nH]1,91,-33,102,109
COc1cc2c(cc1OC)CN(Cc1cc(=O)n3c(-c4ccccc4)csc3n1)CC2,-1,-4,114,118
COc1ccc(-n2cnc3cc(C(=O)NCc4ccccn4)ccc32)cc1,-23,-27,100,102
CCOC(=O)C1=C(C)NC(=O)C1,-3,-16,105,105
CCc1ccnc(NS(=O)(=O)c2ccc(C)c(Cl)c2)c1,-11,-6,103,104
Cc1nc(=O)c(-c2ccccc2)c(C)n1Cc1ccccc1,-14,-46,100,95
CCCc1cc(=O)[nH]c(SC/C=C/c2ccccc2)n1,6,-4,103,104
Nc1[nH]c(=O)[nH]c(=O)c1N=Nc1ccc2c(c1)OCCO2,-8,-44,109,109
COc1ccc(C(=O)OCC(=O)N2CCCCC2)cc1,-1,-17,101,108
CC(C)CNC(=O)c1ccc2c(c1)C(=O)N(C1CCCCC1)C2=O,-18,-7,103,102
CCCSc1ncc(Cl)c(C(=O)Nc2nc(C)c(C(=O)OCC(C)C)s2)n1,-16,-18,104,106
Cc1nc2ccccn2c1-c1csc(Nc2ccc(Br)cc2Br)n1,.,-16,106,107
CCOC(=O)N1CCC(NC(=O)c2cc(C(=O)NCC(OC)OC)ccc2CO)CC1,-2,4,101,103
O=C1CC(C(=O)N(Cc2ccccc2)c2ccccc2)CN1Cc1ccco1 (stereo not drawn),-4,-8,96,93
Cc1ccc(COC(=O)c2cccn2C)cc1,0,-11,111,123
Cn1c(C(C#N)S(=O)(=O)c2ccc(Br)s2)nc2ccccc21 (stereo not drawn),18,2,99,108
CCC(=O)NC(=S)Nc1cc(-c2nc3ccccc3o2)ccc1OC,-1,-11,100,98
CCOC(=O)C1CCN(c2ccccc2CN2CCC(c3ccccc3OC)CC2)CC1,10,-1,99,99
O=C(CCCCn1c(=O)[nH]c2ccsc2c1=O)N1CCCCC1,-7,-7,102,106
Clc1nccc2nc(N3CCCC3)ncc12,-3,-7,101,101
Cc1ccc(N2C(=O)C=CC2=O)cc1,100*,7,103,109
CNC(=O)c1ccc(/C=C2/Oc3ccccc3N(Cc3cccc(C)c3)C2=O)cc1,-7,0,101,103
Nc1nc2n(n1)C(c1ccc(Br)cc1)C=C(c1ccccc1)N2 (stereo not drawn),-24,.,102,106
CC(=O)Oc1ccccc1C(=O)Oc1ccc(C#N)cc1,-399,-70,100,101
CCC(=O)Nc1ccc2nc(C3CC3)n(Cc3ccc(Cl)cc3)c(=O)c2c1,12,31*,101,100
CCCc1cc(=O)[nH]c(SCC(=O)NC(C)(C)C)n1,3,-8,102,100
NC(=Nc1ccccc1)NC(=O)c1nc(Cl)c(N)nc1N,19,-11,101&102,105&102
COC(=O)Cn1c(=N)n(C)c2ccccc21,-1,-22,102,107
COCCNC(=O)c1cc(Br)c(C)c(C)c1C,-6,-2,100,102
CCCOc1ccc(C(=O)N(C)c2ccccc2)cc1,-16,-12,102,104
CC(=O)Oc1ccc2c(=O)c(Oc3ccccc3)coc2c1,-13,-23,100,101
CCOc1ccc(-n2c(O)c(C=Nc3cc(C)on3)c3ccccc3c2=O)cc1,16,14,101,102
CCN(c1cccc(C)c1)S(=O)(=O)c1cc2[nH]c(=O)c(=O)[nH]c2cc1C,-75,-19,101,102
Oc1c(C(O)(C(F)(F)F)C(F)(F)F)ccc2cccnc12,.,-19,140,203
O=C(c1ccccc1NS(=O)(=O)c1ccc(F)cc1)N1CCN(c2ccccc2F)CC1,-8,-22,105,102
CN(C)c1ccc(-c2cc(-c3ccccc3)c(C#N)c(N)n2)cc1,-265,-159,105,121
O=C(CCSCc1cnn(-c2ccccc2)c1-n1cccc1)N1CCOCC1,-12,-9,105,105
Cc1c(NC=O)c(=O)n(-c2ccccc2)n1C,-14,2,100,102
Cc1cc(=O)n2c3c(cc(S(=O)(=O)NC4CC4)cc13)CCC2,9,-14,103,99
CC(C)n1nc(C(=O)N2CCc3ccccc32)c2ccccc2c1=O,2,-11,106,106
CN1CCN(C(=O)c2cc(-c3ccc(F)cc3)nc3ccccc23)CC1,1,.,103,98
C/C(=N\N1C(=O)c2ccccc2C1=O)C1C(=O)c2ccccc2C1=O,7,-75,101,102
CCc1cc(SC#N)ccc1N,8,8,106,107
C=CCn1c2c(c(=O)[nH]c1=O)C(c1ccccc1)C1=C(COC1=O)N2 (stereo not drawn),109,-4,100,110
CCCCN(CC)C(=O)C1CCCN(S(=O)(=O)c2cccc3nsnc23)C1 (stereo not drawn),-9,-18,101,103
Cc1nnc(SCc2ccccc2)n1N,-3,-15,104,103
O=C1Cc2ccccc2C(=O)N1Cc1ccc2c(c1)OCO2,-4,.,75*,69*
COc1ccc(CN(C(=O)c2ccco2)c2ccccc2)cc1,-10,-9,100,101
Brc1cccc(-c2noc(CCCOc3ccccc3)n2)c1,-7,15,103,103
CC(C)n1nccc1NC(=O)c1cccnc1Sc1ccccc1,13,3,105,109
CC1CCN(S(=O)(=O)N2CCCC(C(=O)NCCCN3CCN(c4ccc(F)cc4)CC3)C2)CC1 (stereo not drawn),-6,-1,99,103
Cc1n[nH]c(C)c1S(=O)(=O)N1CCc2ccccc2C1,-1,-6,103,102
CC(C)(C)NC(=O)COc1ncnc2sccc12,0,-8,104,103
CC(C)(C)C(=O)COC(=O)c1cccc(NC(=O)c2ccco2)c1,.,0,100,104
Cc1ccc(C)c(N2CCN(S(=O)(=O)c3ccc4c(c3)CCC(=O)N4)CC2)c1,-5,-11,104,109
C=CCCC1(C)NNc2nc(=O)c(C)nn21 (stereo not drawn),-4,-77,104,101

# A run of entries from further up, as a working copy:
SMILES,Mtb MbtI inh,MenB inh,Polio RdRp inh,Polio RdRp inh intensity
COc1ccc(S(=O)(=O)N2CCc3ccccc32)cc1C(=O)N1CCC(C)CC1,5,-26,96,104
COc1ccnc2cc(Cl)ccc12,-2,-64,102,103
O=C(O)c1ccc(N2CCCC2=O)cc1,-4,.,100,103

# Later entries.
SMILES,Mtb MbtI inh,MenB inh,Polio RdRp inh,Polio RdRp inh intensity
CC(=O)N(CCC(c1ccccc1)c1ccco1)Cc1ccc(N(C)C)cc1 (stereo not drawn),5,-18,100,101
CCCCOc1ccc(-c2ncc(N)cn2)cc1,116,3,105,105
COC(=O)c1ccc(CN2C(=O)NC3(CCCC3)C2=O)cc1,4,-12,103,104
COC(=O)c1ccc2c(c1)sc(=NC(=O)CSC(C)=O)n2C,-1,-21,104,107
COc1ccc2[nH]c3c(OC)ncnc3c2c1,12,-14,104,105
CC1CCCCC1NC(=O)CSc1nncn1N (stereo not drawn),-13,3,100,102
Cn1c(=NC(=O)CC2OC(=O)c3ccccc32)sc2ccccc21 (stereo not drawn),15,8,100,96
COC(=O)C1CCN(C(=O)c2ccccc2)CC1,.,-3,106,105
O=C(/C=C/c1ccc(OC(F)F)cc1)NCc1ccccn1,5,-35,99,101
Cc1nc2c(C(=O)N3CCc4ccccc4C3)cnn2c(C)c1Cc1ccc(Cl)cc1,60,-20,103,98
COc1ccc(OCCCn2c(=O)oc3ccccc32)cc1,3,5,101,102
CC(C)(C)c1ccc(C(=O)C(C#N)=C2SCCCS2)cc1,-7,-14,108,105
Cc1nn(-c2ccccc2)nc1-c1nnc(-c2cccc3ccccc23)o1,9,-7,113,110
CCOc1ccc(S(=O)(=O)N2CCN(CN3C(=O)CC4(CCCC4)C3=O)CC2)cc1,19,-4,100,92
C/C(=N\N)c1ccc2[nH]c3c(c2c1)CCC/C3=N\N,21,-36,100,102
CCSc1ncnc2c(-c3ccc(OC)cc3)nsc12,-2,-16,100,102
CC(C)(C)c1ccc(OCCCn2c(=O)sc3ccccc32)cc1,-16,-32,102,106

# Source: PubChem
